HNF4A DNA FP: change in binding of human HNF4 alpha to DNA | P41235 | HNF4a-FITC DNA binding, fluorescence polarization, 1 h | activity change, % at 10 µM | 360,000 compounds, 0.3% hits | AID 1224865; in the data active = activity change above about 30%, passing the limit was not always enough;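 note: controls were the assay level and a saturating level of protein; the project sought stronger binding though the title names inhibitors; some compounds called inactive have numbers as strong as hits; positive values seem to mean higher polarization but the record does not say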
B2AR ag: human beta-2 adrenergic receptor agonism by FAP; P07550; Am2.2-beta2AR cells, FAP receptor internalization, flow cytometry; reference of the scale not given here; response, % (concentration not given with the values); 340,000 compounds, 0.43% hits; AID 504454;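 active = response above a set limit, near 3 SD of response in nonfluorescent compounds, cut at about 42% in these data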;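 note: stock transfer was 100 nL into about 11 µL; a reference agonist was the positive control; negative values mostly stem from fluorescent compounds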
Target sequence (P07550 whole entry, looked up): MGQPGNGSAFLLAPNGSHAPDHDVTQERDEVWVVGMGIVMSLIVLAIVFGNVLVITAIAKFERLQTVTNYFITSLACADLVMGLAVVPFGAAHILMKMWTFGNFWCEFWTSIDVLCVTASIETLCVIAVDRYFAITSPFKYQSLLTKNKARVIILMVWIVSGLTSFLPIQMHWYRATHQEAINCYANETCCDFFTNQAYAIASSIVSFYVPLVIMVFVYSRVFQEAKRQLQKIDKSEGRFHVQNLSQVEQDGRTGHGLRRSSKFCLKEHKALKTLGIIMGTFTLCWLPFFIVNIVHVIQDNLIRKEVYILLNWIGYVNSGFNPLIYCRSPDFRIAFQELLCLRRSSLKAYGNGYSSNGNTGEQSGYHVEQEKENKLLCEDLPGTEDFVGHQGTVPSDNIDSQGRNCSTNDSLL
rRNA inh HTS: inhibitors of bacterial rRNA selective over humanized ribosomes. E. coli WT GFP vs humanized-ribosome RFP mutants, fluorescence, 24 h; active compounds read low; DMSO median 0, no signal -100. GFP signal change (wild-type ribosome), % (no concentration beside the values). 350,000 compounds, 1.6% hits;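 active = significant combined selectivity score with lowered wild-type GFP, culture density cut under 30%, mutant RFP and density less affected; inactive = any of these conditions unmet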; note: one replicate is shown; some compounds called inactive have numbers as strong as hits
Ecoli growth: blocks Escherichia coli growth. OD600, 23 h; active compounds read low. OD600 absorbance (concentration not given with the values). 330,000 compounds, 0.21% hits;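 active = OD600 absorbance below the run mean of sample wells minus 3.6 SD, in any replicate, cut at about 0.56 in these data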;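 note: stock transfer was 300 nL into about 60 µL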
FGF22 binding: binders of recombinant human FGF22 by thermal shift; Q9HCT0; SYPRO orange fluorescence; percent of sucrose octasulfate shift, DMSO zero; calls only at 9.99 µM; 340,000 compounds, 1.5% hits; AID 651658;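 active = melting point raised past a set limit in the mean and every replicate; three in four hits are not shown here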
Target sequence (Q9HCT0 whole entry, looked up): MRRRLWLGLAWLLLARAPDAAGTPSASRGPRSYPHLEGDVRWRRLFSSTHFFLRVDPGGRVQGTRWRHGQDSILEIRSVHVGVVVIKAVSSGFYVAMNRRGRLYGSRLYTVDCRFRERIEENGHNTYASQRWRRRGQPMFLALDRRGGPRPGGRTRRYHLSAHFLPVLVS
ALR inh: inhibitors of human sulfhydryl oxidase ALR | purified ALR, DTT oxidation, H2O2 HRP-luminol luminescence | AID 485317 | inhibition, % (no concentration beside the values) | 290,000 compounds, 3.8% hits;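 active = mean and each replicate at 75% or more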;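 note: stock transfer was 7.5 nL into about 7.5 µL; 0% = neutral wells and 100% = wells with inactivated enzyme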
UCH37 DUB inh: human UCH37 deubiquitinating enzyme inhibition | purified proteasome/UCH37, Ub-AMC cleavage fluorescence | AID 588478 | inhibition, % (test concentration not listed) | Q9Y5K5 | 330,000 compounds, 0.33% hits;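 active = mean of two replicates above 20%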;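 note: 0% = compound-free wells with enzyme and 100% = wells lacking proteasome; stock transfer was 100 nL into about 20 µL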
Target sequence (Q9Y5K5 whole entry, looked up): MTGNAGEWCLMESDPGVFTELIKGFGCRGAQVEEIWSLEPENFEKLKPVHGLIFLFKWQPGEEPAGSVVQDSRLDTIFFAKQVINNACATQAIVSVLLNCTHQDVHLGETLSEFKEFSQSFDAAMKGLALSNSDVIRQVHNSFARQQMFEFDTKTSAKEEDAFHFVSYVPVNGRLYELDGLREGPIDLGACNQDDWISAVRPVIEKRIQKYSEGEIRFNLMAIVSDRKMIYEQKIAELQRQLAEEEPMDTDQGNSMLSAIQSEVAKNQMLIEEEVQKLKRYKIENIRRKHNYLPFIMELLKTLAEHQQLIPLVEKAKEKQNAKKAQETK
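Material: human UCH37 enzyme supplied as purified proteasome complex / Amount: 0.15 nM proteasome as dispensed / Buffer or medium: pH 7.4 Tris-HCl (50 mM) with ovalbumin, ATP-MgCl2, DTT / Times: preincubation 30 min, reaction 25 min, room temperature / Technique: AMC fluorescence from Ub-AMC cleavage, excitation 355 nm, emission 460 nm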
rRNA inh HTS OD600: second read-out of rRNA inh HTS, no call of its own (marks repeat the call); OD600 change, %; measured here: OD600 growth;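 optical density of the mix in the first replicate; 0 = DMSO median and -100 = no signal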
rRNA inh HTS RFP: also measured in rRNA inh HTS; calls as there; RFP signal change, %; measured here: RFP humanized mutant strains;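 first replicate; 0 = DMSO median and -100 = no signal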
The depositor's hits bear a star; i = inactive; . = not tested or not shown.

HNF4A DNA FP,B2AR ag,rRNA inh HTS,rRNA inh HTS OD600,rRNA inh HTS RFP,Ecoli growth,FGF22 binding,ALR inh,UCH37 DUB inh,compound
-1.7,-3,.,.,.,0.73,.,-2,1.8,Cc1cc2cc(C)c3nnc(SCC(=O)NCc4ccc5c(c4)OCO5)n3c2cc1C
3.0,1,.,.,.,0.71,.,-1,8.9,CCOC(=O)c1ccc(N/C=C2\CCCCC2=O)cc1
0.0,9,2,8,-0.3,0.63,i,.,1.0,COCC1CCN(C(=O)c2cc(COc3ccc(OC)c4ccccc34)on2)C1 (stereo unspecified)
-4.5,-6,-3,6,-1.7,0.7,i,6,2.3,CCN1CCN(CC(=O)N2N=C(c3ccc(OC)cc3)CC2c2ccc(OC)cc2)C(=O)C1=O (stereo unspecified)
0.9,3,.,.,.,0.74,.,25,0.7,COc1ccc(-c2c(O)c(C#N)c(-c3ccccc3)n(-c3ccc(OC)cc3)c2=O)cc1
1.4,0,-6,3,-7.1,0.71,i,-5,-1.3,CCC(C(=O)Nc1ccccc1Cl)n1nc(C)c2c(C)n(-c3ccccc3)nc2c1=O (stereo unspecified)
-1.6,.,-7,-5,-0.5,.,i,.,.,O=C(/C=C/[C@H]1O[C@@H](n2cnc3c(NC(=O)c4ccccc4)ncnc32)[C@H](O)[C@@H]1O)NCCc1c[nH]c2ccccc12
1.2,7,0,5,2.8,0.69,i,-4,-0.1,CCOc1ccccc1NC(=O)NNC(=O)CCc1ccc(OC)cc1
4.0,0,.,.,.,0.77,.,-9,-6.1,Cc1ccc2nc3c(cc2c1)c(NC(=O)c1cccnc1)nn3C
-0.6,-9,1,19,-0.7,0.7,i,-1,0.6,Cc1c(C(=O)OCC(=O)NC(=O)NC2CCCCC2)cccc1[N+](=O)[O-]
-3.0,-2,.,.,.,0.7,.,100*,2.6,Oc1ccc(N2CCN(C(c3ccncc3)c3nnnn3C3CCCC3)CC2)cc1 (stereo unspecified)
1.9,20,.,.,.,0.75,.,.,-2.3,COc1ccc2nc(C)cc(SCC(=O)Nc3c(C)cc(C)cc3C)c2c1
-33,1,9,0,0.3,0.71,i,12,9.5,C/C=C/C=C/C(=O)[C@@H]1[C@@H]([C@]2(C)OC(=O)C(C)=C2O)[C@H]2/C(=C(O)/C=C/C=C/C)C(=O)[C@]1(C)C(=O)C2(C)O (stereo partly specified)
1.9,3,22,14,-1.1,0.71,i,-1,2.2,C#CC[N+]1(CC#Cc2ccccc2)CCCCC1
2.3,0,-31,-44,-8.4,0.64,i,-18,-12,O=C(CNCc1ccc(F)cc1)Nc1ccccc1-c1ccccc1
3.8,5,-48,-77,-9.7,0.68,i,.,1.3,COc1ccccc1Nc1nc(Cl)nc(NC(C)(C)C)n1

Random excerpt: 4 records from the list, in no set order.
HNF4A DNA FP,B2AR ag,rRNA inh HTS,rRNA inh HTS OD600,rRNA inh HTS RFP,Ecoli growth,FGF22 binding,ALR inh,UCH37 DUB inh,compound
4.0,0,.,.,.,0.77,.,-9,-6.1,Cc1ccc2nc3c(cc2c1)c(NC(=O)c1cccnc1)nn3C
-3.0,-2,.,.,.,0.7,.,100*,2.6,Oc1ccc(N2CCN(C(c3ccncc3)c3nnnn3C3CCCC3)CC2)cc1 (stereo unspecified)
3.8,5,-48,-77,-9.7,0.68,i,.,1.3,COc1ccccc1Nc1nc(Cl)nc(NC(C)(C)C)n1
-0.6,-9,1,19,-0.7,0.7,i,-1,0.6,Cc1c(C(=O)OCC(=O)NC(=O)NC2CCCCC2)cccc1[N+](=O)[O-]

Other structures follow.
HNF4A DNA FP,B2AR ag,rRNA inh HTS,rRNA inh HTS OD600,rRNA inh HTS RFP,Ecoli growth,FGF22 binding,ALR inh,UCH37 DUB inh,compound
1.8,8,.,.,.,0.65,.,7,4.1,CCC(C)c1c(O)nc(SCC(=O)N2CCOCC2)[nH]c1=O (stereo unspecified)
-1.5,-1,-14,-35,5.0,0.66,i,-12,1.7,COc1cc(C)c(S(=O)(=O)NOCc2ccccc2)c(C)c1C
-2.2,-1,.,.,.,0.71,.,4,5.5,CCC(=O)Nc1cc(C(=O)NCC2CCCN2CC)c(OC)cc1N(C)C (stereo unspecified)
0.8,-4,5,8,0.9,0.65,i,93*,3.6,O=C(CSc1ncnc2nc[nH]c12)c1ccc([N+](=O)[O-])cc1
2.4,18,-1,-4,-7.4,0.71,i,9,-138,Cc1cc(NC(=O)c2cc(-c3cccs3)nc3ccccc23)no1
2.5,2,.,.,.,0.67,.,-23,-6.7,O=C(CCN1C(=O)C2C3C=CC(C3)C2C1=O)Nc1ccc2ncccc2c1 (stereo unspecified)
6.9,-7,.,.,.,0.76,.,2,2.0,O=C(CSCc1c(Cl)cccc1Cl)Nc1nccs1
5.9,-7,12,10,-0.6,0.72,i,2,1.2,CCCNC(=O)C(Cc1ccc(C(F)(F)F)cc1)NC(=O)c1ccc2ccccc2n1 (stereo unspecified)
1.9,.,-3,3,4.4,.,i,.,.,O=C(c1[nH]c(C(F)(F)F)nc1-c1ccccc1)N1CCN(Cc2c(F)cccc2Cl)CC1
-1.0,-3,.,.,.,0.69,.,-22,1.1,Cn1nnnc1SCSc1nnnn1C
-2.2,-6,-2,0,-2.8,0.68,i,-12,5.2,CC(C)c1ccc(N(CC(=O)NCc2ccc(F)cc2)C(=O)c2csnn2)cc1
4.2,4,-25,-30,-4.9,0.69,i,4,2.7,CC(C)(C)c1cc(C(=S)N2CCCC2)cc(C(C)(C)C)c1O
0.2,-4,12,6,-1.6,.,i,-5,.,CCN(CC)S(=O)(=O)c1ccc(N2CCOCC2)c(NC(=O)c2ccc(N3CCCC3=O)cc2)c1
0.5,-11,5,-7,0.6,0.71,.,-2,0.3,O=C(NN=C1CCCCC1)c1ccccc1OCc1ccc(F)cc1
3.0,-2,1,6,8.1,0.73,i,.,2.4,COc1cc(NS(=O)(=O)c2cc(NC(C)=O)ccc2OC)c(OC)cc1NC(=O)c1ccccc1
-1.7,-2,10,7,6.1,0.68,i,0,0.5,O=C(CCc1nc(-c2ccc(Cl)cc2)no1)NC1CCCC1
0.7,7,.,.,.,0.68,.,16,1.5,Cc1cc(Br)ccc1SCC(=O)OCC(=O)Nc1ccccc1C#N
1.5,-7,-6,-1,-7.7,0.71,i,-6,5.3,CC(=O)c1ccc(NC(=S)NCCc2ccccn2)cc1
0.8,-3,8,4,-9.3,0.75,i,0,4.8,O=C(Cn1cnc2c(nnn2Cc2ccc(F)cc2)c1=O)Nc1ccc2c(c1)OCCO2
-4.0,2,.,.,.,0.7,.,1,-0.5,COc1cc(OC)c(NC(=O)Cn2cccc2)cc1Cl
-0.9,9,4,-2,-1.6,0.68,i,-4,1.6,Cc1ccccc1OCC(O)Cn1c(NCc2ccco2)nc2c1c(=O)[nH]c(=O)n2C (stereo unspecified)
0.9,-6,-4,-34,0.1,0.67,i,0,3.1,CCOc1ccccc1C(=O)NC(C)c1ccc(-n2ccnc2)cc1 (stereo unspecified)
-1.3,.,12,2,3.4,.,i,.,.,CC1(Cc2ccc(C(F)(F)F)o2)C(=O)Nc2ccc(-c3cccc(C(F)(F)F)c3)cc21 (stereo unspecified)
-0.2,-7,-2,-9,-3.1,0.66,i,100*,1.7,Cc1ccc(OCCC(=O)N2CCN(c3ccc(O)cc3)CC2)cc1
-0.6,-1,-4,-2,-2.2,0.67,i,24,1.2,Cc1ccccc1C(=O)NC(=S)Nc1ccccc1C(=O)O
-1.4,-32,.,.,.,0.73,.,-2,-1.4,Cc1ccc(-c2nnc(SCc3nc4ccccc4[nH]3)n2Cc2ccco2)cc1
3.3,-7,-5,-7,2.5,0.69,i,-14,1.7,O=C(Cc1ccccc1)NCC(=O)Nc1cccc(Cl)c1
-0.5,-1,.,.,.,0.67,.,1,-130,CCOC(=O)c1sc(Nc2nc3cc4c(cc3s2)OCO4)cc1C
-0.1,9,.,.,.,0.7,.,-5,6.4,CSc1nc(=S)n(Cc2ccccc2)c(C)c1C(C)=O
1.5,13,.,.,.,0.76,.,.,3.3,Cc1cc(C)nc(N(C#N)CC(=O)N(c2ccccc2)C(C)C)n1
0.9,-5,.,.,.,0.69,.,-6,-6.5,Cc1ccc(S(=O)(=O)N2CC(O)CC2C(=O)OCc2nc3sc(C)c(C)c3c(=O)[nH]2)cc1 (stereo unspecified)
-0.5,-8,-29*,-21*,-5.9*,0.67,i,0,0.2,CCCn1nnnc1NCc1ccc(Cl)cc1Cl
0.4,0,0,2,0.4,0.71,i,2,-1.1,CC1CC(C)CN(S(=O)(=O)c2ccc3c(c2)C(C)(C)C(=O)N3C)C1 (stereo unspecified)
0.5,.,-25,-38,-8.9,.,i,.,.,CC1(C(=O)NCCc2ccccc2)Cc2c(-c3cccc(C(F)(F)F)c3)ccnc2O1 (stereo unspecified)
1.8,-1,.,.,.,0.65,.,-7,-39,COc1cccc(-c2ccc(C#N)c(OC(=O)c3ccc(Cl)cc3)n2)c1
0.1,-7,0,-1,-1.0,0.71,i,0,4.3,O=C(COC(=O)C1C2CC3OC(=O)C1C3C2)Nc1ccc(Br)cc1 (stereo unspecified)
-0.1,1,7,21,0.6,0.79,i,-16,2.8,C[C@@H](CSc1ccccc1)CN1CC[C@H](O)CCC1=O
1.9,-6,-14*,7.2*,0.8*,0.69,i,.,1.1,COc1ccccc1Cn1c(=S)[nH]c2ccc(F)cc2c1=O
1.9,-12,6,-7,-3.2,.,i,-7,.,C/C(=N\Nc1nc2ccccc2nc1C)c1ccccc1O
-1.1,11,.,.,.,0.69,.,23,-3.6,Cc1cc(-c2cccs2)nc(-n2cccc2)n1
2.8,.,-17,-31,-2.4,.,i,.,.,COCCNc1oc(/C=C/c2cccs2)nc1S(=O)(=O)c1ccccc1
1.1,-1,-4,-4,-2.6,0.69,i,-1,2.8,O=C(CSc1nnnn1C1CC1)N1CCN(c2ccccc2F)CC1
1.8,-1,-29*,-22*,3.0*,0.69,i,-5,3.1,CCOc1ccc(NC(=O)COn2nnc3ccc(S(=O)(=O)N4CCOCC4)cc32)cc1
-1.9,12,9,8,3.2,0.67,i,-1,7.0,COc1ccc(NS(=O)(=O)c2ccc(C)c(C(=O)NC3CCN(Cc4ccccc4)CC3)c2)cc1
-1.3,-8,-1,21,-2.1,.,i,0,5.9,O=C(/C=C/c1cccc(F)c1)Nc1nccs1
-3.0,4,6,6,-0.6,0.72,i,12,4.9,COc1ccc(OC(=O)COc2ccc(Cl)cc2)cc1
1.6,8,0,4,-4.5,.,.,-5,.,O=C(N/N=C/c1ccc(Br)o1)/C(=C/c1ccc([N+](=O)[O-])cc1)NC(=O)c1ccccc1
-0.7,8,.,.,.,0.67,.,0,-13,O=C(Nc1cccc(NC(=O)c2ccc(-c3cccc(Br)c3)o2)c1)c1ccco1
-1.4,9,.,.,.,.,.,17,.,CCN(CC)c1ccc(/C=N/N2C(=O)c3ccccc3C2=O)cc1
-0.9,5,1,-5,23,0.71,i,5,-19,CN1CCCN(S(=O)(=O)c2cccc(C(F)(F)F)c2)c2nc3ccccc3nc21
1.8,-28,.,.,.,0.67,.,-5,0.9,Cc1c(C(c2ccc([N+](=O)[O-])cc2)c2c(C)n(C)n(-c3ccccc3)c2=O)c(=O)n(-c2ccccc2)n1C
2.1,1,.,.,.,0.68,.,.,0.3,COC(=O)c1c(NC(C)=O)sc2c1CCCCC2
0.7,-9,.,.,.,0.64,.,.,4.1,Cc1cc(C)cc(NC(=O)Nc2c(Br)cnn2C)c1
-1.2,5,-9,-26,-3.8,.,i,99*,.,COc1ccc2nc(NNC(=O)C3COc4ccccc4O3)sc2c1 (stereo unspecified)
2.8,5,-2,22,-5.0,.,i,-2,.,CC/C(=N\NC(=O)c1ccoc1C)c1ccc(C)o1

These rows are one share of the data (hit frequency here may not be typical).
